HCMV NEC inh = disrupts HCMV UL50-UL53 complex binding; actives 0.15% (n = 190,000); HTRF UL50-UL53 interaction, normalized percent inhibition; inhibition, % (no concentration beside the values);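 active = both replicates at 50% or more, plus weaker picks with an unusually low signal ratio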;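 note: stock transfer was 100 nL into about 20 µL; 0% = negative control wells and 100% = wells with untagged competitor protein; inactives centre near -12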
GIV Gai3 FP = GIV-Galpha-i interaction inhibition; P08753; Galpha-i3/FITC-GIV peptide fluorescence polarization, 90 min; stronger effect = lower value; scaled: aluminum fluoride 0%, vehicle 100%; percent of control (FP), % (no concentration beside the values); actives 0.42% (n = 210,000); AID 1224905;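 active = replicate mean at 85% of control or lower, very high polarization wells dropped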;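 note: wells of about 15 µL received 100 nL stock; the first replicate is given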
Target sequence (P08753 whole entry, looked up): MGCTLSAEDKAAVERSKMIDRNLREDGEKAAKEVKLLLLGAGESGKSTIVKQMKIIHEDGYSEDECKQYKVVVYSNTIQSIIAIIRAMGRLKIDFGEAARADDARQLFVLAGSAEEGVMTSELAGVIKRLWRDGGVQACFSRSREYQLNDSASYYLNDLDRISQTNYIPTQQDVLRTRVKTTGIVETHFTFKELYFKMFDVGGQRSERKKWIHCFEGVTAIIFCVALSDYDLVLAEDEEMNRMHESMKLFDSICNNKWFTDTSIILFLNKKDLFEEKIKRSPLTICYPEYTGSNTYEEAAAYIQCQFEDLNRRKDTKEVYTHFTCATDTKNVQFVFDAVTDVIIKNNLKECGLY
Sa growth 42C = blocks Staphylococcus aureus growth. S. aureus RN4220 growth, OD600, 20 h, 42 °C; stronger effect = lower value. AID 720641. actives 0.53% (n = 170,000). relative growth, % (concentration not given with the values);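 active = growth at 42 °C up to 50% and 20 or more points under that at 30 °C, or under 10% at both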;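 note: 300 nL library stock went into each well; scaled to the means of positive and negative controls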
Sa growth 42C second temp = second read-out of Sa growth 42C, no call of its own (marks repeat the call); relative growth, %; measured here: growth at 30 °C;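 optical density after 20 h as mean of two plates; 100% = untreated growth and lower means inhibition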
* marks the source's active call; other numbers are inactive results; . = no result given. Rows are unselected; overall some 0.79% were active at least once.

#	smiles	HCMV NEC inh	GIV Gai3 FP	Sa growth 42C	Sa growth 42C second temp
1	CCC(C)NC(C)C(=O)Nc1ccc(Cl)cc1Cl (stereo unspecified)	-19	.	98	96
2	CCCN(CCC)C(=O)C1C2C=CC(C2)C1C(=O)O (stereo unspecified)	-9	105	76	85
3	CC(Sc1ccc2c(c1)OCCO2)C(=O)Nc1ccc2c(c1)OCCO2 (stereo unspecified)	-24	.	91	82
4	CCCc1nnc(SCc2ccccc2C#N)o1	-22	100	100	105
5	O=C(CSc1nc(-c2ccco2)cc(C(F)(F)F)n1)Nc1ccccc1	-34	96	95	92
6	COc1ccc(CNC(=O)C(C)n2ccc3cc(S(=O)(=O)N4CCCC4)ccc32)cc1OC (stereo unspecified)	.	103	105	84
7	Cc1cccc(N=c2oc3cc(O)ccc3cc2C(N)=O)c1	-52	178	70	41
8	CCNc1nc(N2CCOCC2)c2ccccc2n1	-29	109	92	63
9	Cc1cccc(N2C(=O)N(CC(=O)C(C)(C)C)c3ccccc3S2(=O)=O)c1C	.	107	96	95
10	Cc1cccc(/C=N/n2c(C)nnc2C)c1	-21	104	94	91

Other structures.
#	smiles	HCMV NEC inh	GIV Gai3 FP	Sa growth 42C	Sa growth 42C second temp
11	COc1cc(C(=O)Nc2ccc(N3CCCCC3C)cc2)cc(OC)c1OC (stereo unspecified)	-22	106	91	88
12	NC(=O)CCCc1c[nH]c2ccccc12	-6	99	107	86
13	Cc1ccccc1NC(=O)Cc1nc(COC(=O)/C=C/c2ccco2)cs1	-52	.	81	85
14	O=C(Nc1ccc(Oc2ccccc2)cc1)c1n[nH]c(=O)c2ccccc12	-5	100	99	82
15	COc1ccc(-c2cc(C(C)=O)c(C)n2CCC(=O)NCc2ccc(F)cc2)cc1	.	109	103	83
16	CCc1ccccc1NS(=O)(=O)c1ccc2c(c1)OCC(C(=O)N1CCCC1)O2 (stereo unspecified)	.	98	106	82
17	O=c1[nH]c2cc3c(cc2c(=O)n1Cc1nc(-c2ccc(Br)cc2)no1)OCO3	-6	109	.	.
18	CC(C)c1cc(=O)[nH]c(SCc2nc3ccccc3[nH]2)n1	-13	97	110	90
19	O=C1S/C(=C/c2ccccc2F)C(=O)N1CNc1ccc(Br)cc1	-8	96	.	.
20	COc1ccccc1NC(=O)c1sc2nc(C)c(C(=O)Nc3ccc(Cl)cc3)c(-c3ccc(Br)cc3)c2c1N	14	109	106	94

The list continues.
#	smiles	HCMV NEC inh	GIV Gai3 FP	Sa growth 42C	Sa growth 42C second temp
21	Nc1nnc(SCc2cc(=O)n3ccsc3n2)s1	-3	103	90	80
22	CC(Cn1nnc2ccccc21)C(=O)O (stereo unspecified)	.	100	128	97
23	O=C(COCc1cc(-c2ccc3c(c2)OCO3)on1)Nc1cc(F)ccc1F	-11	104	104	92
24	CC(=O)c1cccc(NC(=O)CSc2nnc3ccc(-c4ccc(Br)cc4)nn23)c1	.	96	123	84
25	Cn1ccnc1SCC(=O)N1c2ccccc2CCc2ccccc21	0	.	100	92
26	COc1cccc2c(=O)c(NC(=O)N3CCC(CO)CC3)c[nH]c12	-37	102	81	88
27	CC(C)NC(=O)CC#N	-11	.	103	92
28	CCN(C(=O)NC1(C(F)(F)F)Oc2ccccc2O1)C1CCCCC1	.	99	81	93
29	COc1ccc(-c2coc3c2c(C)cc2oc(=O)cc(C)c23)cc1	-27	105	99	85
30	CCN(CC)C(=O)CSc1ncnc2c1cnn2-c1ccccc1	-16	102	100	75

Other results follow:
#	smiles	HCMV NEC inh	GIV Gai3 FP	Sa growth 42C	Sa growth 42C second temp
31	C#Cc1ccc(NC(=O)CCc2cc(OC)no2)cc1	-22	106	84	79
32	CN(C)C(=O)CN1CCN(C(=O)c2ccc(N3CCNCC3)c(NS(C)(=O)=O)c2)CC1	3	104	.	.
33	CCC(=O)N1c2ccccc2CC1C(=O)NCCN1CCN(c2cccc(C(F)(F)F)c2)CC1 (stereo unspecified)	.	102	121	98
34	Cc1ccc(NC(=O)NC(C)c2c(-n3cccc3)sc(C)c2C)c(C)c1 (stereo unspecified)	-33	101	110	96
35	COc1cc(NC(=O)c2noc3c2CC(C(C)(C)C)CC3)cc(OC)c1OC (stereo unspecified)	1	101	102	96
36	NNc1nc(Nc2cccc(Br)c2)nc(N2CCOCC2)n1	-8	97	.	.
37	CC(O)c1nc2ccccc2n1CC(=O)C(C)(C)C (stereo unspecified)	-25	.	133	91
38	CN1CCN(C(=O)C2CCC(C)(C(=O)O)C2(C)C)CC1 (stereo unspecified)	12	.	101	108
39	Cc1nn(-c2ccccc2)c(N2CCCC2)c1/C=N/NC(=O)c1ccccc1O	-7	.	82	75
40	COc1ccccc1NC(=O)c1sc2nc(C)c(C(=O)Nc3ccc(C)cc3C)c(-c3ccco3)c2c1N	4	106	103	84

Values by screen from the entries so far.
HCMV NEC inh, nos. 12 to 23: -6, -52, -5, ., ., -6, -13, -8, 14, -3, ., -11
GIV Gai3 FP, nos. 12 to 23: 99, ., 100, 109, 98, 109, 97, 96, 109, 103, 100, 104

(further entries)
#	smiles	HCMV NEC inh	GIV Gai3 FP	Sa growth 42C	Sa growth 42C second temp
41	CN1C(=O)c2cc3ccccc3n2CC1(C)C(=O)NCC(=O)NCc1ccccc1Cl (stereo unspecified)	5	101	.	.
42	CCOC(=O)C1C(C)=NC(=O)NC1C (stereo unspecified)	-14	.	82	88
43	CC(C)C(=O)Nc1ccc(-c2csc(N)n2)cc1	-68	.	88	91
44	CC1CCN(CC(=O)N2CCCc3c2c(=O)oc2ccc(OCc4ccccc4)cc32)CC1	-12	104	105	101
45	COC(=O)c1cc2c(ccn2C)n1CC(=O)N(C1CCCCC1)C1CCCCC1	1	97	94	80
46	NC(=O)C1(Nc2ccccc2)CCCCC1	-7	105	130	83
47	O=C(NCCCN1CCN(c2ccc(F)cc2)CC1)c1ccc2nc3ccccc3c(=O)n2c1	-69	97	108	88
48	O=C(CSc1nc2ccccc2nc1Cc1ccc(F)cc1)Nc1ccc2c(c1)OCO2	.	104	87	91
49	CCOC(=O)c1nn(-c2ccc(OC)cc2)c(C(=O)OCC)c1NC(=O)C1CCCCC1	.	103	97	78
50	CCOc1ccc(NC(=O)c2cnc(Nc3ccccc3OC)c3ccccc23)cc1	-11	97	113	89

Carrying on.
#	smiles	HCMV NEC inh	GIV Gai3 FP	Sa growth 42C	Sa growth 42C second temp
51	Cc1ccc(Cn2c(C3CC(=O)N(c4ccccc4)C3)nc3ccccc32)cc1 (stereo unspecified)	.	99	100	89
52	CCOc1ccc(CNS(=O)(=O)c2ccc3[nH]c4c(c3c2)CCCC4)cc1OC	.	108	91	77
53	CC(C)Sc1cc2c(cc1NC(=O)c1ccc(F)cc1)n(C)c(=O)n2C	-6	106	.	.
54	Cc1cccc(OCc2nnc(SCn3nnc4ccccc4c3=O)o2)c1	-19	.	108	95
55	O=C(CCCn1c(SCc2ccccc2F)nc2ccccc2c1=O)NCC1CCCO1 (stereo unspecified)	7	101	93	83
56	CCSC1=N/C(=C\c2ccc(N(C)C)cc2)C(=O)S1	-4	28*	74	99
57	COc1cccc(C(=O)Nc2ccc(-n3nncc3-c3ccc(Br)cc3)cc2)c1OC	.	107	127	99
58	c1ccc(Cn2c(Nc3ccccc3)nc3ccccc32)cc1	-8	107	124	79
59	Cc1cc(C)c2c(-n3cccc3)nn(CC(=O)NCc3ccccn3)c2n1	-25	106	.	.
60	Cc1ccc(S(=O)(=O)Nc2cncc(C(=O)NC3CCCC3)c2)cc1	.	105	104	91

Next records.
#	smiles	HCMV NEC inh	GIV Gai3 FP	Sa growth 42C	Sa growth 42C second temp
61	Cc1ccc(OC(=O)c2c(-c3ccccc3)nnc3ccccc23)cc1	-53	105	59	40
62	COc1ccc(CCN2C(=O)CNC2=S)cc1	-19	105	104	79
63	CC1CCCC(C)N1C(=O)COC(=O)c1ccc2c(c1)OCO2 (stereo unspecified)	-16	.	93	89
64	Cc1ccc(Cl)cc1NS(=O)(=O)c1ccc(N2CCCCS2(=O)=O)cc1	.	104	112	56
65	CCCn1c(=O)c2sccc2n2c(CCCC(=O)NCCc3ccc(Cl)cc3)nnc12	.	106	104	81
66	O=C(NCCN1CCCCC1)c1ccc(CN2C(=O)CCn3nc(-c4ccc(Cl)cc4)cc32)cc1	-6	104	.	.
67	COc1ccc2c(c1)c(C(=O)CSc1ccccc1)c(C)n2C	-3	.	100	87
68	CCn1c(CN2CCCCC2)nc2cc(S(=O)(=O)N3CCCCC3)ccc21	8	.	112	99
69	Cc1cc(NCCOCCO)n2ncc(-c3ccc(F)cc3)c2n1	-9	96	.	.
70	Cc1ccc(CSc2nnc(-n3c(=O)c(C#N)cc4c(=O)n5ccccc5nc43)s2)cc1	.	105	83	79

Following part:
#	smiles	HCMV NEC inh	GIV Gai3 FP	Sa growth 42C	Sa growth 42C second temp
71	CC(C)c1ccc(NC(=O)C2CCN(S(=O)(=O)c3cccc4nonc34)CC2)cc1	-10	107	101	82
72	Clc1ccc(-c2cn3ccsc3n2)cc1	-8	104	.	.
73	O=C(c1ccc(NS(=O)(=O)c2ccc3[nH]c(=O)[nH]c3c2)cc1)N1CCN(c2ccc(F)cc2)CC1	3	.	107	99
74	Cc1ccccc1Cn1c(SCc2ccc(C(=O)NCc3cccs3)cc2)nc2ccncc21	10	100	101	112
75	Cc1c(-c2ccc(Cl)cc2)nc(N)c(C#N)c1-c1ccco1	.	116	99	81
76	O=C(Cn1c(=O)cnc2ccccc21)NCCc1ccccc1	-36	.	105	99
77	Cc1ccccc1-c1n[nH]n2c1nc(=O)c1cc(Cl)ccc12	-14	105	97	89
78	CCN1C(=O)c2ccccc2Sc2ccc(C(=O)NCc3ccccc3)cc21	.	106	90	97
79	COc1ccc(OCCSc2nc3ccc(Br)cc3[nH]2)cc1	-4	108	.	.
80	N=c1n(CC(N)=O)c2ccccc2n1Cc1ccccc1Cl	-9	103	103	89

Other records follow.
#	smiles	HCMV NEC inh	GIV Gai3 FP	Sa growth 42C	Sa growth 42C second temp
81	COc1cccc(NC(=O)c2cnn(-c3ccccc3)c2-n2cccc2)c1	.	107	104	98
82	CC(OC(=O)C1CCCO1)C(=O)NC1CCCC1 (stereo unspecified)	-11	105	92	84
83	COc1ccc(NC(=O)NC(C)c2c(-n3cccc3)sc3c2CCCC3)cc1 (stereo unspecified)	-20	98	96	90
84	O=C(Nc1nc2c(s1)CCCC2)C1CCCCC1	6	99	91	76
85	Cc1cccc(NC(c2cccnc2)c2ccc3cccnc3c2O)c1 (stereo unspecified)	-84	102	.	.
86	Cc1ccc(-n2nc(CO)c(C(=O)NCCc3ccccc3)n2)cc1C	12	98	109	98
87	O=C(NCc1ccc(Cl)cc1)c1cc2c(s1)CSC2	.	103	94	82
88	FC(c1nc2ccccc2[nH]1)C(F)(F)F (stereo unspecified)	-33	103	96	80
89	COC(=O)c1ccccc1NC(=O)CCCn1c(=O)c2cccn2c2cccnc21	.	98	70	90
90	COC(=O)c1ccc(N2C(=O)C3ON(c4ccccc4C)C(c4ccc(F)cc4)C3C2=O)cc1 (stereo unspecified)	.	100	104	89

Additional records follow.
#	smiles	HCMV NEC inh	GIV Gai3 FP	Sa growth 42C	Sa growth 42C second temp
91	Cc1ccc(CN2CCS(=O)(=O)CC2)o1	-8	98	.	.
92	CC(C)c1ccc(/C=C2\Sc3ccccc3NC2=O)cc1	-4	103	97	82
93	CC(C)(C)NC(=O)CN1CCN(c2nc(-c3ccc(Cl)cc3)cs2)CC1	-15	106	99	79
94	Cc1ccc(N2CC(NC(=O)c3cccs3)CC2=O)cc1C (stereo unspecified)	.	102	115	84
95	CC(Oc1ccc2c(-c3ccccc3)cc(=O)oc2c1)C(=O)N1CCOCC1 (stereo unspecified)	-63	.	94	96

Among those listed so far, these have fluorine:
#	smiles	HCMV NEC inh	GIV Gai3 FP	Sa growth 42C	Sa growth 42C second temp
5	O=C(CSc1nc(-c2ccco2)cc(C(F)(F)F)n1)Nc1ccccc1	-34	96	95	92
15	COc1ccc(-c2cc(C(C)=O)c(C)n2CCC(=O)NCc2ccc(F)cc2)cc1	.	109	103	83
19	O=C1S/C(=C/c2ccccc2F)C(=O)N1CNc1ccc(Br)cc1	-8	96	.	.
23	O=C(COCc1cc(-c2ccc3c(c2)OCO3)on1)Nc1cc(F)ccc1F	-11	104	104	92
28	CCN(C(=O)NC1(C(F)(F)F)Oc2ccccc2O1)C1CCCCC1	.	99	81	93
33	CCC(=O)N1c2ccccc2CC1C(=O)NCCN1CCN(c2cccc(C(F)(F)F)c2)CC1 (stereo unspecified)	.	102	121	98
47	O=C(NCCCN1CCN(c2ccc(F)cc2)CC1)c1ccc2nc3ccccc3c(=O)n2c1	-69	97	108	88
48	O=C(CSc1nc2ccccc2nc1Cc1ccc(F)cc1)Nc1ccc2c(c1)OCO2	.	104	87	91
53	CC(C)Sc1cc2c(cc1NC(=O)c1ccc(F)cc1)n(C)c(=O)n2C	-6	106	.	.
55	O=C(CCCn1c(SCc2ccccc2F)nc2ccccc2c1=O)NCC1CCCO1 (stereo unspecified)	7	101	93	83
69	Cc1cc(NCCOCCO)n2ncc(-c3ccc(F)cc3)c2n1	-9	96	.	.
73	O=C(c1ccc(NS(=O)(=O)c2ccc3[nH]c(=O)[nH]c3c2)cc1)N1CCN(c2ccc(F)cc2)CC1	3	.	107	99
88	FC(c1nc2ccccc2[nH]1)C(F)(F)F (stereo unspecified)	-33	103	96	80
90	COC(=O)c1ccc(N2C(=O)C3ON(c4ccccc4C)C(c4ccc(F)cc4)C3C2=O)cc1 (stereo unspecified)	.	100	104	89

From PubChem
